GALR2 ag – activates the human galanin receptor 2; O43603; hit rate 0.48% among 140,000; GALR2-expressing cells, agonist activation read-out; AID 803; activation, %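 (tested at 5 µM)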;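 active = above mean plus 3 SD of all compounds, about 5% in these data, not always enough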;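 also: 0% = vehicle buffer wells and 100% = reference agonist at full effect; tested in CHO reporter cells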
Target sequence (O43603 whole entry, looked up): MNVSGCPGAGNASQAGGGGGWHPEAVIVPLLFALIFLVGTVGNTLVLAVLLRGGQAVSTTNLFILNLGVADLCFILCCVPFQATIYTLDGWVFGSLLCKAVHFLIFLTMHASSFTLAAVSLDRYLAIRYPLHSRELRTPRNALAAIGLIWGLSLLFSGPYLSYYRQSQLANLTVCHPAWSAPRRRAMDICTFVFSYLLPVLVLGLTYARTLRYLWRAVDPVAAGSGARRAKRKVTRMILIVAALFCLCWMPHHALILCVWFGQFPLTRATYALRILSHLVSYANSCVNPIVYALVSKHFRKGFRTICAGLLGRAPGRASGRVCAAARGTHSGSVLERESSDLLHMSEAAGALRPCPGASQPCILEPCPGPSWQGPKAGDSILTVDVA
HSV replic up – increases HSV replication in cells | maximum fold increase | hit rate 0.005% among 220,000 | AID 1956 | HSV replication augmentation in cells, fold increase;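 active = peak rise of 1.5-fold or more in the series; tested in PC3 cells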;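 also: first round at 10 µM; read as green reporter fluorescence; hits show the peak of a series up to 25 µM; 1 = signal of infected wells without compound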
PKD1 inh – PKD1 (human) kinase inhibition; PKD1 kinase fluorescence polarization assay; inhibition, %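 (about 10 µM by stock and volumes)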; hit rate 0.056% among 200,000; AID 797;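 active = inhibition of 50% or more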;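 also: controls were vehicle for no effect and a reference inhibitor for full effect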
RGS16-Gao HTS – RGS16-Galphao interaction regulator (human). O15492+P09471. bead-based flow cytometry RGS16-Galphao binding, fluorescence; actives lie on both sides. binding response (% of control), % at 10 µM. hit rate 0.38% among 220,000. AID 1441;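 active = below 25% or above 175%, edge rows of some plates excepted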;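 also: Galphao activated by GDP with aluminum fluoride before binding; 100% = wells without compound and 0% = beads without RGS; some results beyond the cut were filed as inactive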
Target sequence (O15492 whole entry, looked up): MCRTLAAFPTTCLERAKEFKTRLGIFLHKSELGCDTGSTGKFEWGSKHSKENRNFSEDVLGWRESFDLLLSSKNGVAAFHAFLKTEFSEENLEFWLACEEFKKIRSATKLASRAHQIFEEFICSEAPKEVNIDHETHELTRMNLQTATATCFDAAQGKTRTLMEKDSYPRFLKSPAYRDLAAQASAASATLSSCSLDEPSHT
Target sequence (P09471 whole entry, looked up): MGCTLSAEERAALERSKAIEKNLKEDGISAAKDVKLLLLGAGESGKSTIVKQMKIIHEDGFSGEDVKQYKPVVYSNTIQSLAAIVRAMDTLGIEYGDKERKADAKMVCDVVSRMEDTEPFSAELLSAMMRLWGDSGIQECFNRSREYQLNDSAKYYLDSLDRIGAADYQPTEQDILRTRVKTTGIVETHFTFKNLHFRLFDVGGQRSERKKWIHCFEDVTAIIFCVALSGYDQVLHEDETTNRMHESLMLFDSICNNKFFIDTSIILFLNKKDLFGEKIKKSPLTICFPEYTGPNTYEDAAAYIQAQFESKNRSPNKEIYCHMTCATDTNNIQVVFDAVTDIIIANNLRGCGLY
Insulin prom inh – TRM-6 insulin promoter activity inhibition | TRM-6 cells (human fetal islet line), insulin promoter-eGFP reporter, imaging; reporter expression induced with tamoxifen | inhibition, % at 2 µM | hit rate 0.9% among 130,000;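 active = inhibition above the mean plus 3 SD, with well images judged a real hit on visual review, cut at about 60% in these data, passing the limit was not always enough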
Insulin prom inh cell count – further read-out of Insulin prom inh, marked with its call; normalized cell count, %; measured here: cell count, toxicity; reference of the scale not given here;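 cells exposed to compound for 48 h; stained nuclei by imaging scaled within each plate; lower means fewer cells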
HSV replic up primary fold – recorded beside HSV replic up, whose call it bears; fold increase; compound at 10 µM; measured here: primary screen fold increase 10 uM; tested in PC3 cells;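 GFP signal in the first replicate; 1 = infected wells without compound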
* marks the source's active call; other numbers are inactive results; i = inactive; . = no result given; & = joins results of further samples.

Short forms: A = GALR2 ag; B = HSV replic up; C = HSV replic up primary fold; D = PKD1 inh; E = RGS16-Gao HTS; F = Insulin prom inh; G = Insulin prom inh cell count
C/C=C(/C)C(=O)O[C@@H]1[C@H](OC(=O)C=C(C)C)c2c(ccc3ccc(=O)oc23)OC1(C)C
  A: 0.1	B: i	C: 0.86	D: 5	E: 104	F: -33	G: 93
O=C(NC1CCCCC1)C(=S)N1CCOCC1
  A: .	B: i	C: 0.61	D: 3	E: 99	F: .	G: .
CS(=O)(=O)N(CC(=O)NCc1ccc2c(c1)OCO2)Cc1ccc(Cl)cc1
  A: -1.1	B: i	C: 0.91	D: -2	E: 99	F: -44	G: 121
CCCCNC(=O)c1cc([N+](=O)[O-])[nH]n1
  A: -1.3	B: i	C: 0.98	D: 0	E: 101	F: 3	G: 108
CC(Oc1ccccc1)C(=O)N1CCN=C1SCc1ccccc1 (configuration not stated)
  A: .	B: i	C: 1.1	D: 5	E: 100	F: .	G: .
CCSc1nnc(C)n1-c1ccc(C(=O)O)cc1
  A: -1.9	B: i	C: 0.91	D: -7	E: 84	F: -28	G: 116
COc1ccc2sc(NC(=O)CC(C)C)nc2c1
  A: 0.2	B: i	C: 0.92	D: -1	E: 100	F: 61	G: 141
CCOc1ccccc1NC(=O)C(NCC1CCCCC1)c1ccccc1 (configuration not stated)
  A: .	B: i	C: 1.1	D: -6	E: 96	F: 56	G: 110
O=C(O)c1nccnc1C(=O)Nc1ccccc1N1CCOCC1
  A: .	B: i	C: 1.1	D: .	E: 105	F: .	G: .
CCOC(=O)N1CCN(S(=O)(=O)c2ccc(F)c(C(=O)Nc3cccc(Cl)c3C)c2)CC1
  A: -0.9	B: i	C: 0.65	D: -5	E: 104	F: -29	G: 119
COC(=O)CCN(c1ccccc1)S(=O)(=O)c1ccc(OC)cc1
  A: -3.4	B: i	C: 0.98	D: 0	E: 94	F: -10	G: 125
O=C(CCC1CCCCC1=O)c1ccccc1 (configuration not stated)
  A: -0.7	B: .	C: .	D: -7	E: 105	F: -67	G: 61
COc1ccccc1NC(=O)CN1CCN(S(=O)(=O)c2ccc(Br)cc2)CC1
  A: 1.5	B: .	C: .	D: -3	E: 102	F: 27	G: 104
CCOC(=O)c1sc(=S)n(-c2ccc(C)cc2)c1SC
  A: -0.6	B: i	C: 1	D: 7	E: 85	F: -26	G: 95
COc1cc(/C=N/NC(=O)c2cc3ccccc3cc2O)ccc1OCCN1CCCCC1
  A: -0.2	B: i	C: 0.92	D: 9	E: 84	F: -45	G: 105
CN(C)S(=O)(=O)c1ccc(C(=O)OCC(=O)c2ccc3c(c2)NC(=O)CO3)cc1
  A: .	B: i	C: 1	D: .	E: 102	F: .	G: .
O=C1C(Cc2ccc3[nH]ccc3c2)NC(=S)N1c1ccccc1 (configuration not stated)
  A: .	B: i	C: 0.95	D: .	E: 102	F: .	G: .
C/C(=N\Nc1ccc(Cl)c(C(=O)O)c1)c1cccc([N+](=O)[O-])c1
  A: .	B: i	C: 1.1	D: .	E: 103	F: .	G: .
Cc1ccccc1C(=O)NN1C(=O)CSC1=S
  A: 0.8	B: i	C: 0.95	D: -6	E: 100	F: 28	G: 132
O=C(Nc1ccccc1)OCC1CCCN2CCCCC12 (configuration not stated)
  A: -0.7	B: i	C: 1	D: 0	E: 101	F: 3	G: 146
COC(=O)Nc1ccc(S(=O)(=O)N2CCCc3ccccc32)cc1
  A: -1.3	B: i	C: 0.69	D: 0	E: 86	F: .	G: .
COc1ccc2oc(=O)c(C(=O)C[n+]3cccc(C)c3)cc2c1
  A: .	B: i	C: 0.99	D: 10	E: 109	F: .	G: .
Cc1nnc(SCC(=O)Nc2ccccc2F)n1Cc1ccco1
  A: .	B: i	C: 1	D: .	E: 101	F: .	G: .
Cc1scc(-c2n[nH]c(=S)n2C(C)c2ccccc2)c1C (configuration not stated)
  A: -0.6	B: i	C: 0.94	D: 1	E: 100	F: 11	G: 122
COc1ccc(-c2nnn(CC(=O)N(CC(=O)NC3CCCC3)c3ccccc3)n2)cc1OC
  A: .	B: i	C: 1	D: 3	E: 97	F: 40	G: 119
CCOC(=O)C1(c2csc(N)n2)COC(=O)C1 (configuration not stated)
  A: -2.0	B: i	C: 0.86	D: 2	E: 96	F: 11	G: 139
CC(C)OCCCNC(=O)c1ccc(N(C)S(C)(=O)=O)cc1
  A: -0.7	B: i	C: 0.88	D: -1	E: 106	F: 19	G: 109
CNC(=S)NCCc1ccc(OC)c(OC)c1
  A: -0.8	B: .	C: .	D: -3	E: 94	F: .	G: .
Cc1nc2ccc(C(=O)O)cc2c2c1CC(C)S2 (configuration not stated)
  A: -4.0	B: i	C: 1.1	D: -2	E: 102	F: 59	G: 114
O=C(CC1=NCCNC(c2ccccc2)C1)c1ccccc1O (configuration not stated)
  A: -1.0	B: .	C: .	D: 12	E: 108	F: .	G: .

Exported bar-delimited: 5 of the compounds above
SMILES | GALR2 ag | HSV replic up | HSV replic up primary fold | PKD1 inh | RGS16-Gao HTS | Insulin prom inh | Insulin prom inh cell count
Cc1nnc(SCC(=O)Nc2ccccc2F)n1Cc1ccco1 | . | i | 1 | . | 101 | . | .
Cc1scc(-c2n[nH]c(=S)n2C(C)c2ccccc2)c1C (configuration not stated) | -0.6 | i | 0.94 | 1 | 100 | 11 | 122
COc1ccc(-c2nnn(CC(=O)N(CC(=O)NC3CCCC3)c3ccccc3)n2)cc1OC | . | i | 1 | 3 | 97 | 40 | 119
CCOC(=O)C1(c2csc(N)n2)COC(=O)C1 (configuration not stated) | -2.0 | i | 0.86 | 2 | 96 | 11 | 139
CC(C)OCCCNC(=O)c1ccc(N(C)S(C)(=O)=O)cc1 | -0.7 | i | 0.88 | -1 | 106 | 19 | 109

2 successive compounds already listed:
Short forms: A = GALR2 ag; B = HSV replic up; C = HSV replic up primary fold; D = PKD1 inh; E = RGS16-Gao HTS; F = Insulin prom inh; G = Insulin prom inh cell count
CN(C)S(=O)(=O)c1ccc(C(=O)OCC(=O)c2ccc3c(c2)NC(=O)CO3)cc1
  A: .	B: i	C: 1	D: .	E: 102	F: .	G: .
O=C1C(Cc2ccc3[nH]ccc3c2)NC(=S)N1c1ccccc1 (configuration not stated)
  A: .	B: i	C: 0.95	D: .	E: 102	F: .	G: .

Continued.
Short forms: A = GALR2 ag; B = HSV replic up; C = HSV replic up primary fold; D = PKD1 inh; E = RGS16-Gao HTS; F = Insulin prom inh; G = Insulin prom inh cell count
Cn1c(-c2ccc3c(c2)OCO3)cnc1N
  A: -1.1	B: i	C: 0.82	D: -3	E: 103	F: .	G: .
COc1cccc(C2=NCCc3cc4c(cc32)OCO4)c1OC
  A: -0.8	B: i	C: 1.1	D: 4	E: 100	F: 31	G: 108
Cn1c(C(=O)NCCCN2CCCC2=O)cc2c(=O)n(C)c3ccccc3c21
  A: -0.6	B: i	C: 0.9	D: 8	E: 108	F: .	G: .
COc1ccc(CNC(=O)COc2ccc(C)nc2[N+](=O)[O-])cc1
  A: .	B: i	C: 0.9	D: 6	E: 111	F: -50	G: 114
COC(=O)CC1C(=O)NCCN1C(=S)NC(=O)c1sc2ccccc2c1Cl (configuration not stated)
  A: .	B: i	C: 1	D: -9	E: 103	F: -33	G: 98
O=C1Nc2ccc(S(=O)(=O)NCc3ccccn3)c3cccc1c23
  A: -0.8	B: .	C: .	D: 1	E: 90	F: 21	G: 93
Cc1nn(C)c(C)c1CNC(=O)c1cc2n(n1)C(C(F)(F)F)CC(c1cccs1)N2 (configuration not stated)
  A: -2.4	B: i	C: 0.96	D: 0	E: 106	F: -279	G: 124
Cc1cc2nc(C3CCN(C(=S)NCCCOC(C)C)CC3)[nH]c2cc1C
  A: .	B: i	C: 0.97	D: 11	E: 116	F: .	G: .
O=C(c1ccco1)N1N=C(c2ccc(Br)cc2)CC1(O)C(F)(F)F (configuration not stated)
  A: .	B: i	C: 0.87	D: -3	E: 103	F: .	G: .
Cc1ccccc1Nc1nc(N)nc(CSc2nnc(-c3ccccc3)n2C)n1
  A: 0.2	B: .	C: .	D: 6	E: 119	F: 11	G: 76
O=C(CCCC(=O)N(CC(=O)NC1CCCC1)Cc1ccc2c(c1)OCO2)Nc1ccccn1
  A: -2.5	B: i	C: 0.85	D: -10	E: 103	F: 36	G: 122
CCOC(=O)C1CCN(C(=O)Nc2ccc3nccnc3c2)CC1
  A: -1.1	B: i	C: 0.92	D: 7	E: 104	F: -121	G: 46
COc1cccc(C2CC(c3ccc(C)cc3)n3ncnc3N2)c1 (configuration not stated)
  A: -0.7	B: i	C: 0.92	D: 6	E: 103	F: .	G: .
[O-][n+]1c2c(nn1-c1ccccc1Cl)-c1nonc1CC2
  A: -1.5	B: i	C: 0.8	D: -29	E: 110	F: -152	G: 59
Cc1cc(C)cc(C(=O)NCCn2cc(SCC(=O)N3CCOCC3)c3ccccc32)c1
  A: -0.5	B: i	C: 0.96	D: -17	E: 104	F: .	G: .
CC1(C)CNC(=O)CC(C)(C)N1
  A: .	B: i	C: 1	D: 0	E: 98	F: 64	G: 106
COc1ccccc1/C=C\C=N\n1c(-c2ccc(Cl)cc2)n[nH]c1=S
  A: -0.9	B: i	C: 0.71	D: 1	E: 7.8*	F: 33	G: 120
CC(C)NS(=O)(=O)c1ccc2c(c1)NCC2
  A: -0.8	B: i	C: 1.1	D: -15	E: 109	F: 8	G: 123
O=C(N/N=C/c1ccc(OCc2ccc(F)cc2)cc1)c1ccccc1
  A: .	B: i	C: 0.84	D: -1	E: 37	F: -5	G: 73
CCC(C)c1ccccc1OCCn1ccnc1 (configuration not stated)
  A: -1.7	B: i	C: 1.1	D: -2	E: 122	F: 4	G: 135
Cc1cc(C)c(S(=O)(=O)N2CCN(C(=O)N(C)C)CC2)c(C)c1
  A: .	B: i	C: 0.89	D: -3	E: 111	F: -76	G: 104
S=C(Nc1ccc2c(c1)OCCO2)Nc1ccc2c(c1)OCO2
  A: .	B: i	C: 0.96	D: 2	E: 99	F: .	G: .
CNC(=S)N1C2CCC1CC(NC(=O)NC13CC4CC(CC(C4)C1)C3)C2 (configuration not stated)
  A: -0.4	B: i	C: 0.85	D: 7	E: 100	F: 25	G: 111
O=C(COc1ccc(S(=O)(=O)N2CCCC2)cc1)NCCC1=CCCCC1
  A: -1.5	B: i	C: 0.91	D: 2	E: 104	F: -374	G: 68
O=C(C[n+]1ccccc1)N/N=C/c1ccco1
  A: .	B: i	C: 0.86	D: -2	E: 110	F: .	G: .
O=c1[nH]c(SCc2ccccc2)nnc1-c1ccccc1
  A: 0.0	B: i	C: 0.9	D: 3	E: 107	F: 50	G: 99
COc1ccc(C2C3=C(CC(C)(C)CC3=O)Oc3ncn(Cc4ccco4)c(=N)c32)cc1 (configuration not stated)
  A: -1.9	B: i	C: 1.1	D: 8	E: 102	F: 0	G: 170
COc1ccc(-c2ccc(-c3noc(-c4ccco4)n3)c(OC)n2)cc1
  A: -0.7	B: i	C: 1.1	D: -2	E: 103	F: -19	G: 57
CC(=O)Nc1ccc(S(=O)(=O)N=S(C)C)cc1
  A: -2.5	B: i	C: 0.78&0.99	D: 12	E: 96&102	F: 32	G: 119
NC(=O)c1ccc(-n2nnnc2SCC(=O)Nc2ccc(N3CCOCC3)c(Cl)c2)cc1
  A: 1.0	B: i	C: 0.93	D: -2	E: 95	F: 16	G: 90
Cc1c(O)cc2n(c1=O)-c1ccc(Cl)cc1C2(C)C
  A: -1.6	B: i	C: 1	D: -10	E: 99	F: -44	G: 100
CCCc1[nH]nc2c1C1(C(=O)N(CC)c3ccccc31)C(C#N)=C(N)O2 (configuration not stated)
  A: -4.2	B: i	C: 0.96	D: 2	E: 102	F: 23	G: 93
C=CCn1c(C)cc(C(=O)CSc2ccc(NC(C)=O)cc2)c1C
  A: -2.1	B: i	C: 1.1	D: 5	E: 92	F: 0	G: 57
CCn1c(N)c(C(=O)NCCCOC)sc1=S
  A: -1.4	B: .	C: .	D: 19	E: 99	F: .	G: .
CCc1ccccc1NS(=O)(=O)c1ccc(SC)cc1
  A: -3.1	B: i	C: 0.95	D: -1	E: 93	F: .	G: .
COc1ccc(N(C)S(=O)(=O)c2cccc(C(=O)NC3CCCCCC3)c2)cc1
  A: .	B: i	C: 0.93	D: -3	E: 99	F: -14	G: 111
S=C1CCSc2ccc(Cl)cc2N1
  A: -0.1	B: .	C: .	D: 11	E: 178	F: -49	G: 82
COc1ccc(CNC(=O)CSc2nnc(C(F)(F)F)n2C)cc1
  A: .	B: i	C: 1	D: -2	E: 99	F: 0	G: 126
Cc1cccc(NCc2nnc(-c3ccccc3)o2)c1C
  A: .	B: i	C: 0.95	D: -1	E: 112	F: -22	G: 112
CCOC(=O)c1sc(NC(=O)c2ccc3ncsc3c2)nc1C
  A: 0.5	B: i	C: 0.9	D: -4	E: 95	F: .	G: .
CCc1nn(CC(=O)NCCCN2CCc3ccccc3C2)c(=O)c2cc3sccc3n12
  A: -1.2	B: i	C: 0.73	D: -8	E: 106	F: .	G: .
O=C(NCCc1ccccc1)c1ccncc1
  A: -0.6	B: i	C: 1	D: 3	E: 116	F: -74	G: 77

High-throughput results: PubChem BioAssay, several laboratories
